High-throughput results (PubChem BioAssay)
StopGo RLuc: lowers the Renilla signal of an FMDV 2A StopGo reporter. HEK cells with a luciferase reporter of 2A StopGo recoding. Potency, µM (series often up to 57.5 µM), inactives show top-dose signal change, negative = less light. hit rate 0.32% among 120,000. AID 1745857; active means well fitted falling curve with a large enough effect; inconclusive means small, poorly fitted or top-dose-only effect; inactive means no such curve, though single readings can be large or run the other way; also: nearly all actives have a fitted effect of over 55% in size; overnight with compound
2A firefly: FMDV 2A StopGo reporter, firefly signal | AID 1745856 | hit rate 0.23% among 120,000 | HEK cells with a luciferase reporter of 2A StopGo recoding | Potency, µM (doses to about 57.5 µM), inactives show at the top dose signal change, negative = less light; active = well fitted falling curve with a large enough effect; inconclusive = small, poorly fitted or top-dose-only effect; inactive = no such curve, though single readings can be large or run the other way; also: nearly all actives have a fitted effect of over 60% in size; overnight with compound
Starred values were filed as active, the others as inactive; ? = inconclusive; & = joins results of further samples; [ ] = remark or other dose. % is scaled to controls: 0 for no effect and ±100 for the full control effect; potency is read from the fitted curve at half-maximal effect.

SMILES	StopGo RLuc	2A firefly
COc1cc(C(=O)N2CCN(c3nccs3)CC2)cc(Cl)c1OC	5%	-1%
CCN(c1ccc(NS(=O)(=O)c2ccc(C)c(C)c2)cc1)C(C)C	120%[activator]	-1%
COc1ccc2c(c1)CC(C(=O)Nc1ccc(Br)c(C)c1)CO2 (stereo not given)	-11%	-10%
COc1ccc(-c2[nH]nc3c2C(c2ccc(F)cc2)C2=C(CC(C)(C)CC2=O)N3)cc1 (stereo not given)	142%[activator]	-24%
COC(=O)CSc1nc2sc3c(c2c(=O)n1-c1ccccc1)C(C)CCC3 (stereo not given)	-6%	0%
N#C/C(=C/c1ccccc1)c1nc2ccccc2[nH]1	58%[activator]	193%[activator]
Cc1ccccc1NS(=O)(=O)c1c(C)nn(C)c1C	21%	-3%
CCC(C(=O)Nc1ccc(C(C)=O)cc1)n1c(C)c2cnn(-c3ccccc3)c(=O)c2c1C (stereo not given)	-8%	-12%
O=C(NC1C2CC3CC(C2)CC1C3)c1cccc(Br)c1 (stereo not given)	11%	17%
CC(C)COc1cccc(C(=O)Nc2ccc3oc(-c4ccncc4)nc3c2)c1	6%	14%
CC(=O)NCCc1ccc(C(=O)Cn2nnc(-c3cccc(F)c3)n2)cc1	25%	0%
CCOC(=O)c1cc2c(=O)n3ccccc3nc2n(CCCOC)c1=NC(=O)C(C)(C)Oc1ccc(Cl)cc1	23%	-19%
Cc1ccc(NC(=O)Cn2ncn3c(cc4ccccc43)c2=O)c(C)c1	-12%	0%
CCOC(=O)c1ccc(Nc2nc3ccccc3nc2NS(=O)(=O)c2ccc(C)c(C)c2)cc1	13%	19%
CC(=O)OC/C=C(C)/C=C/C=C(C)/C=C/C1=C(C)CCCC1(C)C	-1%	-14%[11.5 µM]
O=[N+]([O-])c1cc([N+](=O)[O-])c2ccccc2c1	-14%[114 µM]	-17%[115 µM]
NC(=O)CCNc1ccccc1	4%	5%
c1ccc(-n2nnnc2CSc2nnc(N3CCOCC3)n2-c2ccccc2)cc1	-2%	-8%
CCOC(=O)c1ccc(NC(=O)CSc2nc3c(cc2C#N)N2CCC3CC2)cc1	-9%	-15%
Cc1oc(-c2ccccc2)nc1CC(=O)Nc1ccccc1I	14%	19%
N#Cc1cccc(COc2ccccc2C(N)=O)c1	5%	36%[activator]
CCOC(=O)c1ccc(NC(=O)CCC(=O)N2Cc3ccccc3Oc3ncccc32)cc1	-9%	-4%
CCOc1ccccc1NC(=O)N1c2ccccc2Sc2ccccc21	71%[activator]	67%[activator]
COc1cccc(CNC(=O)CSc2ncc(S(=O)(=O)c3ccc(C)c(Cl)c3)c(=O)[nH]2)c1	-6%	-1%
COCCn1c(SCCC#N)nnc1-c1ccc(Cl)cc1	5%	8%
Cc1cc(C)c(S(=O)(=O)NCCO)cc1C	235%[activator]	13%
CC(C)(C)NC(=O)c1cc(-c2ccc3c(c2)OCO3)nc2ccccc12	-7%	12%
Cn1c(=O)[nH]c(=O)c2c1nc(N1CCN(Cc3c(F)cccc3Cl)CC1)n2Cc1ccccc1	9%	20%
Cc1nn(-c2ccc(N3CCCCC3)nn2)c(C)c1CCC(=O)NCc1ccccc1	-5%	28%
COc1cc(CN(C(=O)COc2ccc(Cl)c(C)c2)c2ccccn2)cc(OC)c1OC	?	19%
CCN1CCSc2ccc(C(=O)NCc3ccc(F)cc3)cc21	51%[activator]	22%
CN(Cc1ccc(Br)cc1)C(=O)c1cc2ccccc2[nH]1	15%	31%[activator]
O=C(CSc1nc(=O)n(Cc2ccco2)c2c1CCC2)Nc1ccccc1C(F)(F)F	188%[activator]	5%
COC(=O)C1CCN(c2csc3ccc(Cl)cc3c2=O)CC1	68%[activator]	44%[activator]
COc1ccccc1-c1c(C(F)(F)F)oc2cc(OCC(=O)OCC(C)C)ccc2c1=O	2%	7%
Cc1ccc(Cc2cc(C)ncc2C)c(C)c1	4%	8%
O=C(NCc1ccccc1)c1ccc2cc[nH]c2c1	107%[activator]	123%[activator]
CCOc1cc(C(=O)N(c2cc(C)cc(C)c2)C2C=CS(=O)(=O)C2)cc(OCC)c1OCC (stereo not given)	31%[activator]	-6%
CC1CCCCN1Cc1c(O)ccc2c(=O)c(-c3ccccc3Cl)c(C(F)(F)F)oc12 (stereo not given)	-23%	-11%
CC1CCn2c(nc3cc(C(=O)N4CCN(c5ccccc5)CC4)ccc32)C1 (stereo not given)	48%	102%[activator]

Arranged by number of heavy atoms (smallest number first): some entries from above.
SMILES	StopGo RLuc	2A firefly
COC(=O)C1CCN(c2csc3ccc(Cl)cc3c2=O)CC1	68%[activator]	44%[activator]
CCN1CCSc2ccc(C(=O)NCc3ccc(F)cc3)cc21	51%[activator]	22%
CC1CCn2c(nc3cc(C(=O)N4CCN(c5ccccc5)CC4)ccc32)C1 (stereo not given)	48%	102%[activator]

(list continues)
SMILES	StopGo RLuc	2A firefly
CNS(=O)(=O)c1cc(NS(=O)(=O)c2cc(Cl)cc(Cl)c2)ccc1C	216%[activator]	0%
CCOC(=O)c1sc(N2C(=O)c3oc4ccccc4c(=O)c3C2c2ccc(C(C)(C)C)cc2)nc1C (stereo not given)	-6%	2%
CC(C)Sc1ncc(Cl)c(C(=O)Nc2c(C(=O)Nc3ccccc3)oc3ccccc23)n1	12%	-12%
Cc1ccc(OC(C)C(=O)Nc2ccc3nsnc3c2)cc1C (stereo not given)	21%	11%
N#Cc1cc(F)c(NCc2ccc(F)cc2)c(F)c1	0%	21%
CN(/C=C/C(=O)C(F)(F)F)C1(c2ccccc2Cl)CCCCC1=O (stereo not given)	31%[activator]	17%
O=C(NC1CC(=O)N(c2ccccc2)C1)c1ccc(S(=O)(=O)N2CCCC2)cc1 (stereo not given)	14%	6%
CSc1ccc(CNC(=O)CN2C(=O)C3CCCCN3c3ccc(C(=O)N4CCCC4)cc32)cc1 (stereo not given)	71%[activator]	-5%
Cc1ccc(C)c(Nc2nc(-c3ccc(-c4ccccc4)cc3)cs2)c1	16%	4%
CC(=O)Nc1ccccc1OCc1cc(=O)n2c(C)csc2n1	-8%	-16%
CN1CCN(C(=O)Cn2c(-c3ccccc3)cc3ccccc32)CC1	9%	9%
N#CCCn1c(SCC(=O)Nc2ccc(C(N)=O)cc2)nc2ccccc21	2%	8%
COc1ccc(-c2c(C)c3ccc(OC(C)=O)cc3oc2=O)cc1	84%[activator]	159%[activator]
CCC1CN(C(=O)N2CCC(C(=O)NCCC3=CCCCC3)CC2)c2cc(C)ccc2O1 (stereo not given)	2%	-26%
COc1ccc(Nc2nc(-c3ccc(F)cc3F)cs2)cc1	?	113%[activator]
CC(C)NC(=O)COC(=O)c1cc(=O)c2ccccc2o1	0%	0%
CCOc1ccc(NC(=O)CCCc2nc(-c3cccc(OC)c3)no2)cc1	0%	10%
CCCCn1c(=O)[nH]c(=O)c2c1nc(COC(=O)/C=C/c1cc(Cl)c(OC)c(OC)c1)n2C	-1%	11%
Cc1cccc(CSc2cn(CC(=O)N3CCCCCC3)c3ccccc23)c1	76%[activator]	129%[activator]
COc1ccc(NC(=O)C(c2ccc(OC)cc2)N(C)C(=O)Cc2cccs2)cc1 (stereo not given)	83%[activator]	0%
CC(NC(=O)c1ccccc1NC(=O)c1nn(C)c(=O)c2ccccc12)c1ccccc1 (stereo not given)	4.5µM*	3.5µM*
Cc1c(Cl)cccc1NCC(=O)N1CCNC1=O	5%	0%
CCC(CC)NC(=O)c1cc(S(C)(=O)=O)ccc1C	-4%	-1%
CSc1ccc(NC(=O)C2CCCCC2)cc1	37%[activator]	197%[activator]
COc1cc(NC(=O)c2noc3c2CC(C)CC3)c(OC)cc1Cl (stereo not given)	108%[activator]	-8%
Cc1nonc1CN1CCN(C(C(=O)O)c2c[nH]c3ccccc23)CC1 (stereo not given)	-2%	-5%
COc1ccc(CCNC(=O)c2cc3c(=O)n(C)c4cc(Cl)ccc4c3s2)cc1OC	-8%	0%
COc1cc(-c2noc(-c3ccc(N4CCCCC4)c([N+](=O)[O-])c3)n2)cc(OC)c1OC	-1%	-5%
Cc1ccc(Cl)cc1N1CCN(S(=O)(=O)c2ccc3c(c2)CC(=O)N3C)CC1	26%	-10%
COc1cc(C(=O)N(Cc2ccc(N(C)C)cc2)CC2CCCO2)cc(OC)c1OC (stereo not given)	118%[activator]	26%
O=C(NCc1ccccc1Cl)C1CCCN(C(=O)c2cnn(-c3ccccc3)c2-n2cccc2)C1 (stereo not given)	10%	-15%
O=S(=O)(c1ccccc1)c1nc(-c2ccccc2F)oc1N1CCOCC1	8%	-16%
Cc1ccc(S(=O)(=O)Nc2cc([N+](=O)[O-])c([N+](=O)[O-])cc2NS(=O)(=O)c2ccc(C)cc2)cc1	119%[activator]	1%
Cc1ccccc1CN1CCc2nc(N3CCN(c4ncccn4)CC3)ncc2C1	-5%	2%
Cc1cccc(N2CCN(C(=O)C3CCN(Cc4nc(-c5ccc(Cl)cc5)oc4C)CC3)CC2)c1C	-11%	-20%
CCCCc1cc(=O)oc2c(C)c(OCC(=O)NCc3ccncc3)ccc12	2%	3%
O=C(Nc1ccc(Cl)cc1)C1CCN(c2nc3ccccc3n3cccc23)CC1	?	14%
CN(C)c1ccc2ncccc2c1	15%	148%[activator]
CCN(Cc1ccc(C(N)=O)cc1)Cc1cccs1	2%	-1%
CC(C)(C)c1ccc(C(=O)N/C(=C\c2ccc(Cl)cc2)C(=O)O)cc1	-5%	3%
Cc1ccc(NC(=O)C2CCN(C(=O)c3sc4nc[nH]c(=O)c4c3C)CC2)cc1C	-8%	9%
N#CC1(NC(=O)CSc2ncc(-c3ccc(F)cc3)o2)CCCCC1	38%[activator]	42%[activator]
O=C(Cn1cc(SCc2ccc(F)cc2)c2ccccc21)N1CCCCC1	?	?
Cc1ccc(C(=O)Nc2c(NC3CCCC3)c3ccccc3oc2=O)cc1	-7%	22%
O=C(Cn1ccn(-c2ccc(F)c(F)c2)c(=O)c1=O)NCCc1ccccc1	-14%&-7%	-19%&-18%
Cc1ccc(CNC(=O)c2ccc3c(c2)N(Cc2cccc(C)c2)C(=O)CS3)cc1	13%	3%
CCCCNc1nc(-c2ccc(OC)c(OC)c2)cs1	8%	7%
CCn1nc(C(=O)N2CCc3ccccc3C2)c2ccccc2c1=O	54%[activator]	32%

Grouped by structure: those above containing an aryl methoxy group
SMILES	StopGo RLuc	2A firefly
COc1cc(C(=O)N2CCN(c3nccs3)CC2)cc(Cl)c1OC	5%	-1%
COc1ccc2c(c1)CC(C(=O)Nc1ccc(Br)c(C)c1)CO2 (stereo not given)	-11%	-10%
COc1ccc(-c2[nH]nc3c2C(c2ccc(F)cc2)C2=C(CC(C)(C)CC2=O)N3)cc1 (stereo not given)	142%[activator]	-24%
COc1cccc(CNC(=O)CSc2ncc(S(=O)(=O)c3ccc(C)c(Cl)c3)c(=O)[nH]2)c1	-6%	-1%
COc1cc(CN(C(=O)COc2ccc(Cl)c(C)c2)c2ccccn2)cc(OC)c1OC	?	19%
COc1ccccc1-c1c(C(F)(F)F)oc2cc(OCC(=O)OCC(C)C)ccc2c1=O	2%	7%
COc1ccc(-c2c(C)c3ccc(OC(C)=O)cc3oc2=O)cc1	84%[activator]	159%[activator]
COc1ccc(Nc2nc(-c3ccc(F)cc3F)cs2)cc1	?	113%[activator]
CCOc1ccc(NC(=O)CCCc2nc(-c3cccc(OC)c3)no2)cc1	0%	10%
CCCCn1c(=O)[nH]c(=O)c2c1nc(COC(=O)/C=C/c1cc(Cl)c(OC)c(OC)c1)n2C	-1%	11%
COc1ccc(NC(=O)C(c2ccc(OC)cc2)N(C)C(=O)Cc2cccs2)cc1 (stereo not given)	83%[activator]	0%
COc1cc(NC(=O)c2noc3c2CC(C)CC3)c(OC)cc1Cl (stereo not given)	108%[activator]	-8%
COc1ccc(CCNC(=O)c2cc3c(=O)n(C)c4cc(Cl)ccc4c3s2)cc1OC	-8%	0%
COc1cc(-c2noc(-c3ccc(N4CCCCC4)c([N+](=O)[O-])c3)n2)cc(OC)c1OC	-1%	-5%
COc1cc(C(=O)N(Cc2ccc(N(C)C)cc2)CC2CCCO2)cc(OC)c1OC (stereo not given)	118%[activator]	26%
CCCCNc1nc(-c2ccc(OC)c(OC)c2)cs1	8%	7%
